# Compound activity from PubChem.
# Cruzain inh Det: inhibitors of Trypanosoma cruzi cruzain with detergent; P25779; hit rate 0.43% among 200,000; purified cruzain, Z-FR-AMC fluorescence, 0.01% Triton; Potency, µM, inactives show max response, negative = inhibition, usual class: inhibitors; active = well fitted curve in the direction sought with a large enough effect; inconclusive = small, poorly fitted or top-dose-only effect, or another doubt; inactive = no such curve, though single readings can be large; an effect the other way counts as inactive or inconclusive;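 note: plate controls were neutral wells for no effect and buffer without enzyme for full effect; nearly all actives have a fitted effect of over 40% in size; top concentration of the series not given in the record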
# Target sequence (P25779 123-467 limits assumed): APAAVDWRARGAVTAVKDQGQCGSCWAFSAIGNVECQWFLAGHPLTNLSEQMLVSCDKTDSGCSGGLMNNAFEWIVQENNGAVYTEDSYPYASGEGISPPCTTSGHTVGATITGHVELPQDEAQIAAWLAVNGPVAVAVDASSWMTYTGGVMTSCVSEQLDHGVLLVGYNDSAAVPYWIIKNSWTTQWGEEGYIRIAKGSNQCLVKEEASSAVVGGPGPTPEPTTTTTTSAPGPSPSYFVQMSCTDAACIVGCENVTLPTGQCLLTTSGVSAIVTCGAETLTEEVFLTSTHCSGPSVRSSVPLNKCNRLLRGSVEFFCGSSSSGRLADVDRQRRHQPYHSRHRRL
#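 Purified cruzain (1.5 nM final) was preincubated with compounds for 15 min at room temperature in 100 mM sodium acetate pH 5.5, 5 mM DTT, 0.01% Triton X-100. Reaction started with 2 uM Z-FR-AMC; AMC fluorescence change over 60 s gave activity.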
# NS1 inh: influenza NS1 inhibition; AID 2326; S. cerevisiae slowed by influenza A NS1, growth recovery by OD600; hit rate 0.4% among 270,000; Potency, µM (top dose mostly 46.1 µM), without a hit: at the highest dose activity, positive = more growth; note: actives are rising curves; nearly all actives have a fitted effect of over 50% in size
#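 Compounds were scored for reversing the slow growth caused by influenza A NS1 in S. cerevisiae, measured by optical density at 600 nm. Assay medium contained 2% galactose at pH 6.0; NS1-free yeast of the same strain were the positive control.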
# MARV entry inh: blocks Marburg virus binding to or entry into cells. Potency, µM (series often up to 37.8 µM), for inactives: top-dose activity change, negative = inhibition, most hits filed as inhibitors. hit rate 1.8% among 300,000. Marburg virus pseudotyped entry inhibition, cell reporter; control for the full effect not named in the record; about a third of the inactives were read at about 46 µM; active = well fitted inhibition curve with a large enough effect; inconclusive = small, poorly fitted or top-dose-only effect, or effect the other way; inactive = flat fitted curve, though single readings scatter; tested in HEK293 cells; about a fifth of its hits are not listed in these tables; note: % is set by controls: 0 for no effect and ±100 for the full control effect; luciferase read-out
# SARS PLP yeast: blocks SARS-CoV papain-like protease in a yeast assay; hit rate 0.19% among 330,000; S. cerevisiae expressing SARS-CoV PLpro, growth rescue; control for the full effect not named in the record; Potency, µM (doses to about 32.9 µM), for the others: top-dose activity, positive = growth rescue; AID 485353; note: 0% is about no effect; nearly all actives have a fitted effect of over 55% in size; growth read by luminescence after 48 h
# LASV entry inh: Lassa virus entry inhibition; hit rate 1.2% among 300,000; Lassa virus pseudotype entry inhibition, cell reporter; control for the full effect not named in the record; AID 540256; Potency, µM (highest dose often 37.9 µM), for inactives: top-dose activity change, negative = inhibition, hits mostly inhibitors; active means well fitted inhibition curve with a large enough effect; inconclusive means small, poorly fitted or top-dose-only effect, or effect the other way; inactive means flat fitted curve, though single readings scatter; tested in HEK293 cells; note: % is set by controls: 0 for no effect and ±100 for the full control effect; nearly all actives have a fitted effect of over 50% in size; luciferase read-out
# 2A StopGo: lowers the luciferase signal of an FMDV 2A StopGo reporter | Potency, µM (highest dose often 57.9 µM), for the others: top-dose signal change, negative = less light | AID 1159524 | hit rate 1.2% among 410,000 | human cells with a luciferase reporter of 2A StopGo recoding; control for the full effect not named in the record; active = well fitted falling curve with a large enough effect; inconclusive = small, poorly fitted or top-dose-only effect; inactive = no such curve, though single readings can be large or run the other way; tested in HEK293T cells; note: % is set by controls: 0 for no effect and ±100 for the full control effect; nearly all actives have a fitted effect of over 45% in size; luciferase light after 4 h
# Cruzain noTriton: cruzain (T. cruzi) inhibition without detergent | purified cruzain, Z-FR-AMC fluorescence, no detergent | Potency, µM, inactives show max response, negative = inhibition, usual class: inhibitors | hit rate 2.3% among 200,000 | AID 1476; active = well fitted curve in the direction sought with a large enough effect; inconclusive = small, poorly fitted or top-dose-only effect, or another doubt; inactive = no such curve, though single readings can be large; an effect the other way counts as inactive or inconclusive;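 note: plate controls were enzyme without inhibitor for no effect and buffer without enzyme for full effect; nearly all actives have a fitted effect of over 40% in size; top concentration of the series not given in the record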
#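 Purified cruzain at 1.5 nM, pre-incubated 15 min with compound at room temperature in 100 mM sodium acetate pH 5.5, 5 mM DTT, 0.00005% Triton X-100. Reaction started with 2 uM Z-FR-AMC; AMC fluorescence increase over 60 s gives rate.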
# RE007 growth inh: less growth of the S. pombe RE007 Vpr strain; S. pombe RE007 Vpr strain, BacTiter-Glo ATP luminescence, 24 h; control for the full effect not named in the record; hit rate 0.21% among 360,000; Potency, µM (top dose mostly 92.2 µM), without a hit: top-dose activity change, negative = less growth; active = well fitted falling curve with a large enough effect; inconclusive = small, poorly fitted or top-dose-only effect; inactive = no such curve, though single readings can be large or run the other way;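 note: % is set by controls: 0 for no effect and ±100 for the full control effect; nearly all actives have a fitted effect of over 50% in size; the assay follows cell death caused by Vpr and the record does not say whether a fall means rescue or toxicity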
#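 Fission yeast RE007 carrying one integrated HIV-1 vpr copy, seeded at OD 0.01 in PMG+AL medium with 23 nL pinned compound. Grown 24 h at 30 degrees; viability read by BacTiter-Glo luminescence after 5 min.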
# The depositor's hits bear a star; ? = inconclusive; . = no result given; & = joins results of further samples; [ ] = another dose, or the depositor's remark. Unless noted, calls come from the whole dose curve; as a rule, active means well fitted rising curve with a large enough effect; inconclusive means small, poorly fitted or top-dose-only effect; inactive means no such curve, though single readings can be large or run the other way. Potency is the fitted concentration of half-maximal effect.
SMILES	Cruzain inh Det	NS1 inh	MARV entry inh	SARS PLP yeast	LASV entry inh	2A StopGo	Cruzain noTriton	RE007 growth inh
Fc1cccc(Nc2nc(N3CCOCC3)nc(N3CCOCC3)n2)c1	.	-40%	.	-1%	.	-27%	.	3%
Cn1c(=O)cc(OCCCC(=O)Nc2ccc3c(c2)OCCO3)c2ccccc21	2.6%	-3%	?	-12%	10%	11%	-3%	9%
Cc1nn(-c2ccc(F)cc2)c(C)c1CN1CCN(CCC(C)C)C(CCO)C1 (stereo not drawn)	.	-1%	?	-1%	0%	0%	.	-1%
COc1ccc(-c2nnn(CC(=O)Nc3sc4c(c3C#N)CCCC4)n2)cc1	-1.0%	3%	9%	2%	8%	-5%	-23%	1%
C#CCSc1nc(-c2ccccc2)cc(-c2ccccc2)c1C#N	-5.8%	.	-11%[46.1 µM]	.	-1%[46.1 µM]	-10%	-28%	.
COc1ccc(Cl)cc1N(CC(=O)Nc1ccc2c(c1)OCCO2)S(C)(=O)=O	-3.6%	-18%	-7%	1%	3%	-11%	?	-5%
Cc1cc(C)cc(OCC(=O)N/N=C/c2ccccn2)c1	.	1%	.	-2%	.	-14%	.	-4%
Cc1cc(F)ccc1NC(=O)C1CCCN(c2nnc(-n3c(C)ccc3C)s2)C1 (stereo not drawn)	-3.7%	.	-29%[46.1 µM]	.	?	-29%	-14%	.
CN(c1ccc(O)cc1)c1nc(-c2ccccc2)cs1	-15%	-67%	?	-69%	?	31%[activator]	-6%	?
COc1ccc(C(=O)OCCc2ccc(O)cc2)cc1	-4.6%	-33%	?	-19%	?	46%[activator]	-7%	9%
O=C(O)CNC(=O)c1ccc(N2CCOCC2)cc1[N+](=O)[O-]	.	.	-8%[46.1 µM]	1%	-2%	3%	.	2%
CCOC(=O)c1sc2nc(SCC(=O)N(CC)CC)n(CCCN3CCCC3=O)c(=O)c2c1C	.	.	-15%[46.1 µM]	4%	-20%[46.1 µM]	0%	.	-5%
CN(C)C(=O)c1cc([N+](=O)[O-])cc([N+](=O)[O-])c1N(C)C	-9.7%	6%	-3%	-5%	24%	.	-3%	-4%
CC(=O)Nc1ccc(S(=O)(=O)N2CCN(C(=O)c3ncoc3-c3ccccc3F)CC2)cc1	.	-7%	-6%[46.1 µM]	-6%	.	-21%	.	-3%
CCN1/C(=C2\OC(=S)N(C)C2=O)Sc2ccccc21	4.7%	6%	0%	9%	0%	33%[activator]	-8%	-30%
Cc1ccc(Cl)cc1N1CCN(S(C)(=O)=O)CC1	0.2%	6%	-10%	1%	-22%	.	13%	-8%
CCOC(=O)C1CCCN(C(=O)c2ccc(C)c(NC(=O)C3=C(C)OCCS3)c2)C1 (stereo not drawn)	.	15%	.	4%	.	14%	.	11%
C=CCN(c1ccc(OC)cc1)S(=O)(=O)c1ccc(Cl)c(C(=O)OCC(=O)c2c(N)n(C)c(=O)n(C)c2=O)c1	.	.	?	.	?	-15%	.	5%
N#CC1(NC(=O)COC(=O)c2nccnc2N)CCCCC1	.	.	6%	2%	9%	-23%	.	6%
O=C(NCc1ccccn1)C1CCN(S(=O)(=O)N2CCCCC2)CC1	3.2%	-18%	9%	4%	16%	.	3%	3%
Cc1ccc(S(=O)(=O)N2CCc3ccccc3CC2)cc1	.	.	?	.	?	-3%	.	-10%
COc1cccc(C(=O)Nc2ccc(NC(=O)c3ccc(C(C)(C)C)cc3)cc2)c1	-0.2%	.	.	.	6%[46.1 µM]	-21%	10%	.
CCC(C(=O)NCCCN1CC(C)CC(C)C1)n1nc(C)c2sc3ccccc3c2c1=O (stereo not drawn)	.	-9%	.	-1%	.	0%	.	-9%
CCN(CC)CCOC(=O)C(O)(c1ccccc1)c1ccccc1	-2.7%&11%	-12%	10%&10%&10%&10%	3%	7%	-23%	-4%&7%	5%[18.4 µM]
Cn1c(=O)c2c(nc(SCC(=O)Nc3ccc(OC(F)(F)F)cc3)n2Cc2cccc(C(F)(F)F)c2)n(C)c1=O	0.1%	.	-1%[46.1 µM]	.	?	?	-8%	.
Cc1ccc2c(C)c(C(=O)NCC(c3ccc(Cl)cc3)N3CCOCC3)oc2c1 (stereo not drawn)	-9.2%	.	-20%[46.1 µM]	.	-10%[46.1 µM]	-27%	?	.
C=CCc1ccc(OCC(O)CN2CCN(c3ccccc3)CC2)c(OC)c1 (stereo not drawn)	.	4%	.	-1%	.	1%	.	-3%
COc1ccc(C(=O)Nc2cc3c(cc2N2CCCC2)n(C)c(=O)c(=O)n3C)cc1OC	-7.9%	.	3%[46.1 µM]	.	-6%[46.1 µM]	-16%	0%	.
Cc1coc2cc3oc(=O)c(CCC(=O)NCCCn4ccnc4)c(C)c3cc12	.	-13%	.	3%	.	-18%	.	-17%
Cc1c(CCOC(=O)c2ccc(Cl)cc2Cl)sc[n+]1CC(=O)c1ccccc1	.	.	-4%	-1%	-5%	-21%	.	26%
Cc1cc(NC(=O)COC(=O)Cn2[nH]c(=O)c3ccccc3c2=O)c([N+](=O)[O-])cc1C	.	.	?	1%	4%	-9%	.	1%
CS(=O)(=O)N1CCN(c2ccc([N+](=O)[O-])c(NCCN3CCOCC3)c2)CC1	-6.7%	3%	-19%	4%	6%	-21%	-5%	2%
CC(=O)Nc1ccccc1NC(=O)c1ccc(C)c(C)c1	.	2%	4%[46.1 µM]	0%	-22%[46.1 µM]	1%	.	1%
O=C1NC(=S)N/C1=C/c1cccc([N+](=O)[O-])c1O	3.3%	-2%	19%	-4%	0%	-15%	2%	-13%
CC(NC(=O)NCC1CCCO1)(C(F)(F)F)C(F)(F)F (stereo not drawn)	-0.5%	12%	?	0%	12%	-27%	16%	4%
C=CCN(CC=C)c1cnn(-c2nc3ccccc3[nH]2)c(=O)c1Cl	-0.7%	-91%	?	-7%	-18%	-5%	-11%	-16%
CCOc1ccc(-c2nc(=S)[nH][nH]2)cc1	3.2%	5%	?	11%	0%	33%[activator]	1%	16%
CC(C)(C)OC(=O)C1C(=O)CC(C)(O)C(C(=O)OC(C)(C)C)C1c1ccco1 (stereo not drawn)	-2.5%	-5%	19%	-8%	-5%	-23%	?	-1%
O=C(CN1CCCCCC1)Nc1ccc(Cl)cn1	.	5%	?	4%	9%[46.1 µM]	15%	.	0%
Cc1cc(NC(=O)CSc2nnc(C(F)(F)F)n2C)no1	.	.	10%	-8%	-1%	-8%	.	-23%
O=C(CN1C(=O)NC2(CCOc3ccccc32)C1=O)NCCc1ccccc1 (stereo not drawn)	.	.	-7%	-5%	-16%	7%	.	11%
COc1cccc(N2CC(NC(=O)c3ccc4ccccc4c3)CC2=O)c1 (stereo not drawn)	.	.	-29%[46.1 µM]	-2%	-16%	3%	.	-5%
CCCS(=O)(=O)c1nc(S(=O)(=O)c2ccc(C)cc2)c(N2CCc3ccccc3C2)s1	-1.5%	10%	5%	-16%	?	20%	-29%	-5%
CCCCSc1nc2sc3c(c2c(=O)n1-c1ccc(OC)cc1)CCN(C)C3	.	6%	?	0%	-18%[46.1 µM]	-9%	.	-9%
COc1ccc(-n2nnc3c(SCC(=O)Nc4ccccc4F)ncnc32)cc1	.	9%	18%	0%	27%	?	.	-1%
Cc1ccc2nc(N3CCN(C(=O)c4ccco4)CC3)sc2c1	.	.	11%[46.1 µM]	-1%	7%	8%	.	-1%
CCNC(=S)Nc1ccc(C)c(S(=O)(=O)Nc2ccccc2OC)c1	.	3%	-25%[46.1 µM]	0%	10%	44%[activator]	.	-10%
CCOCCc1nnc(NC(=O)C2CC(=O)N(CCc3ccc(F)cc3)C2)s1 (stereo not drawn)	.	14%	-2%[46.1 µM]	.	8%	-6%	.	-6%
Cc1ccc(-n2c(-c3cccnc3)n[nH]c2=S)c(C)c1	-1.9%	-6%	-2%	6%	3%	26%	8%	5%[3.69 µM]
Cc1nnsc1NC(=O)OCC(C)C	0.0%	-5%	0%	0%	8%	-14%	-7%	-7%

# (continued)
SMILES	Cruzain inh Det	NS1 inh	MARV entry inh	SARS PLP yeast	LASV entry inh	2A StopGo	Cruzain noTriton	RE007 growth inh
Nc1nc(SC2c3cccc4cccc(c34)C2NS(=O)(=O)c2ccccc2)n[nH]1 (stereo not drawn)	-9.0%	24%	-2%	2%	-16%	?	-14%	11%
O=C(COC(=O)c1ccc(Cl)c(S(=O)(=O)N2CCCCC2)c1)NCc1ccco1	.	.	-6%[46.1 µM]	0%	14%[46.1 µM]	8%	.	9%
CC(C)[C@H](N)c1nnc(SCC(=O)c2ccc(Cl)cc2)o1	-15%	15%	-1%	-3%	8%	16%	-30%	-1%
CC(C)c1ccc(C2C(C#N)=C(N)N3C(=C2C#N)Sc2ccccc23)cc1 (stereo not drawn)	-14%	43%	.	1%	.	.	7.9µM*	.
CN(c1cccc(NC(=O)CN(c2ccc(F)cc2)S(C)(=O)=O)c1)S(C)(=O)=O	.	0%	11%[46.1 µM]	0%	-5%	-11%	.	-14%
